Anthrax LT inh: blocks cellular internalization of anthrax lethal toxin | AID 912 | Cells, anthrax lethal toxin internalization, FRET ratio (460/530) | Potency, µM (series often up to 40 µM), inactives show top-dose activity change, negative = inhibition, usual class: inhibitors | 0.67% of 70,000 active; active = well fitted falling ratio curve with the 530 nm signal flat; inconclusive = other ratio curves, or a change in one channel alone; inactive = flat curves in the ratio and both channels; the % refers to the ratio; note: % is set by controls: 0 for no effect and ±100 for the full control effect; nearly all actives have a fitted effect of over 50% in size; tested in ME-180 cells; beta-lactamase reporter
SmPrx2 inh: inhibitors of Schistosoma mansoni peroxiredoxin 2; S. mansoni Prx2 activity coupled to TGR/GSH (TGR is thioredoxin glutathione reductase), NADPH fluorescence loss, qHTS; some inactives read as strong as hits; Potency, µM; 0.07% of 65,000 active; active means full or partial inhibition curve with a strong effect at the top dose; inconclusive means weaker partial or single-point curve; inactive means no accepted curve; note: series up to 57 µM; many of its hits are not listed in these tables
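Prx2 inhibition was measured as reduced NADPH consumption when electrons flowed from NADPH through TGR and glutathione to Prx2 and H2O2. Plates were read kinetically over 8 min; enzyme reagents were held at 4 deg C during dispensing.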
* marks the source's active call; other numbers are inactive results; ? = inconclusive; / = no result given; & = joins results of further samples; [ ] = dose if it differs, or a comment. Potency is the fitted concentration of half-maximal effect. A portion of the library (hit frequency here may not be typical).

Order of results: Anthrax LT inh, SmPrx2 inh
- CC1CC(C)CN(C(=O)C2CCCN(S(=O)(=O)c3cccc4nonc34)C2)C1 (stereo not given)
 : ?, >57
- CN(c1ccccc1C(=O)Nc1ccccc1C(=O)NCc1ccco1)S(C)(=O)=O
 : -11.0%, >57
- Cc1cc(-c2cccs2)n[nH]1
 : -8.2%, /
- CCN1CCN(c2c(Cl)cccc2NC(=O)c2ccc3c(c2)OCCO3)CC1
 : 19.2%, >57
- CCCC(=O)Nc1nnc(-c2ccco2)s1
 : -13.2%, >57
- CCC1Sc2ccccc2N(CC(=O)NCc2ccc3c(c2)OCO3)C1=O (stereo not given)
 : -6.3%, >57
- CCN1CCN(C(=O)C2c3cc(OC)c(OC)cc3C(=O)N(C)C2c2ccc(SC)cc2)CC1 (stereo not given)
 : -3.7%, >57
- N#CCCN(C(=O)CSc1ccc2c(c1)OCCO2)c1ccccc1
 : -16.6%, >57
- CCOC(=O)N1CCN(C(=O)c2oc(=O)c3ccccc3c2-c2ccc(C)cc2)CC1
 : -1.5%, >57
- NCS(=O)(=O)O
 : -3.5%[8 µM], >57
- O=C(CSc1ccc(Cl)cc1)OCc1nnc(-c2ccccc2)o1
 : 4.0%, >57
- Cc1ccc(-c2nn(CC(=O)NCc3ccco3)c(=O)c3ccccc23)cc1
 : 10.9%, >57
- CC(C)NC[C@H](O)c1cc(O)cc(O)c1
 : -0.1%[3.58 µM], >57&>57
- O=C(O)c1cc2nc3c(c(C(F)(F)F)n2n1)CCc1ccccc1-3
 : 3.6%, /
- O=C(CSc1nc2ccccc2o1)c1cc2ccccc2oc1=O
 : -14.4%, >57
- Cn1cc[nH]c1=S
 : -0.8%[3.58 µM], /
- Cc1ccc(OCc2nnc(SCC(=O)N3CCOCC3)n2C)cc1
 : ?, >57
- Cc1ccc2c(COC(=O)C3=COCCO3)cc(=O)oc2c1
 : -1.6%, >57
- Cc1cc(C)n(C(=O)CCNC(=O)c2ccccc2Br)n1
 : ?, >57
- COc1cc([C@H]2[C@@H]3CCCC[C@]3(O)CCN2CC(=O)Nc2ccc(C)cc2C)ccc1O
 : -29.7%, >57
- O=c1c2oc3ccccc3c2ncn1Cc1ccccc1F
 : 7.9%, >57
- Nc1sccc1C(=O)c1ccccc1
 : -19.7%, >57
- Cc1ccc(-n2ncc3c(=O)n(-c4ccc(C)c(C)c4)c(C)nc32)cc1
 : 2.5%, >57
- Cc1nc(SCC(=O)O)c2oc3ccccc3c2n1
 : 3.3%, >57
- CCCn1c(C(C)NC(=O)c2ccccc2)nc2ccccc21 (stereo not given)
 : ?, >57
- O=C(Nc1ccc2c(c1)nc1n2CCN(C2CCCCC2)C1)c1ccco1
 : ?, >57
- O=C(CCn1c(=O)sc2ccccc21)Nc1cccnc1
 : 22.0%, >57
- CCN(CC)C(=O)C1CCC(CNS(=O)(=O)c2cccc3cccnc23)CC1 (stereo not given)
 : -13.8%, >57
- O=C(c1cc(C(F)(F)F)cc(C(F)(F)F)c1)N1CCC2(CCCN(Cc3ccncc3)C2)CC1
 : ?, >57
- CCOC(=O)c1ccc(NC(=O)CC2COc3ccccc3O2)cc1 (stereo not given)
 : -16.6%, >57
- Cc1cc2nn(-c3cccc4ccccc34)nc2cc1N
 : ?, >57
- Cc1cc(C)cc(NC2=NCC(=O)N2Cc2ccccc2)c1
 : -23.6%, >57
- COc1cc(CN2CCN(c3cc(C)ccc3C)CC2)ccc1O
 : 11.1%, >57
- N#Cc1c(-c2ccco2)c2c([nH]c1=S)CCCC2
 : ?, ?
- COc1ccccc1CNc1ccc(N2CCOCC2)c(C(=O)O)c1
 : 3.8%, >57
- CC(C)(C)n1nnnc1C(c1cccs1)N(Cc1ccccc1)Cc1ccco1 (stereo not given)
 : ?, >57
- CCOC(=O)C1CCCN(C(=O)c2cc(-c3ccc(C)cc3)on2)C1 (stereo not given)
 : -8.9%, >57
- O=C(c1ccccc1)c1ccc2nc(N3CCN(C(=O)c4ccco4)CC3)c3nncn3c2c1
 : -15.1%, >57
- COc1ccc(S(=O)(=O)Nc2ccc3c(c2)OCO3)cc1Cl
 : /, >57
- CC(C)(C)c1csc(NC(=O)Cn2c(=O)oc3ccccc32)n1
 : -18.4%, >57
- CCCN1CCN(c2ncnc3c2nnn3Cc2ccccc2)CC1
 : -17.5%, >57
- Cc1ccc(-c2nc3cccnc3s2)cc1NC(=O)c1ccco1
 : 3.7%, >57
- CN(Cc1ccccc1)S(=O)(=O)c1ccc(C(=O)Nc2nnc(C3CC3)o2)cc1
 : 3.0%, >57
- O/N=C1\CC(O)Cc2nonc21 (stereo not given)
 : 4.2%, >57
- COc1ccc(Oc2ncc3ncc(=O)n(C)c3n2)cc1
 : -13.6%, >57
- COC1(CS(=O)c2ccccc2)CCN(CCc2c[nH]c3ccc(F)cc23)CC1 (stereo not given)
 : -16.3%, >57
- O=C(O)c1ccc(/C=N\N=C2c3ccccc3-c3ccccc32)cc1
 : -4.6%[8 µM], >57
- O=c1cc(CO)oc(CN2CCN(c3ccccc3F)CC2)c1O
 : -11.4%, >57
- CCC(=O)N1CCc2cc(S(=O)(=O)NCCC(=O)N3CC=C(c4ccccc4)CC3)ccc21
 : 1.5%, >57
- COc1cccc(Cn2cccc(NC(=O)NC3CCCCC3)c2=O)c1
 : 6.5%, >57

Carrying on:
Order of results: Anthrax LT inh, SmPrx2 inh
- COCCn1c(=O)c(-c2ccc(Cl)cc2)nc2cnc(OCc3ccccc3)nc21
 : 10.4%, >11.4
- COc1ccc(CCNC(=O)CN(c2ccccc2OC)S(C)(=O)=O)cc1
 : 2.6%, >57
- Cc1cc(O)c(C2(C(F)(F)F)NCCNC2=O)cc1C (stereo not given)
 : 7.3%, >57
- COc1cccc(C2NC(=O)NC(C)=C2C(=O)Nc2ccc(C)cc2)c1OC (stereo not given)
 : -3.6%, >57
- COc1ccccc1CNc1nc2ccccc2n1CCN1CCCCC1
 : -7.9%, >57
- CCCNS(=O)(=O)c1ccc(C(=O)NCC2CCCO2)cc1 (stereo not given)
 : -6.0%, >57
- NC(=O)C1(N2CCCCC2)CCN(C(=O)c2ccccc2)CC1
 : 1.7%, >57
- CC(=O)c1cccc(NC(=O)Nc2ccc(C(=O)N3CCOCC3)cc2)c1
 : ?, >57
- O=C(Nc1ccc(N2CCN(C(=O)c3ccccc3)CC2)cc1)c1ccc(Br)o1
 : -43.8%, >57
- C=C(C)C(=O)OCC(C)C
 : 3.8%, /
- CC1Cc2ccccc2N1S(=O)(=O)c1cnc[nH]1 (stereo not given)
 : -11.9%, >57
- CC(C)CC(NC(=O)C(CC(C)C)NC(=O)OC(C)(C)C)C(=O)O (stereo not given)
 : -1.1%, >57
- Cc1cc(C(F)(F)F)nc(Nc2nc(C)c3ccccc3n2)n1
 : -12.9%, >57
- O=C(c1cc(-c2ccc(Cl)cc2Cl)on1)N1CCOCC1
 : 13.6%, >57
- CCOC(=O)c1ccccc1NC(=O)c1cc(S(=O)(=O)N2CCOCC2)ccc1F
 : ?, >57
- COC(=O)c1cc(NC(=O)CCc2c(C)nc3ncnn3c2C)cc(C(=O)OC)c1
 : -5.2%, >57
- CC(=O)c1c(C)n(-c2ccccc2)c2ccc(OCC(O)CN3CCOCC3)cc12 (stereo not given)
 : ?, >57
- Cc1cc2cc(CN3C(=O)c4ccccc4C3=O)ccc2[nH]1
 : -11.1%, >57
- COc1ccc(CCN(Cc2nc3ccccc3c(=O)[nH]2)C(=O)c2ccco2)cc1
 : -9.8%, >57
- CN(CC(=O)N1CC=C(c2ccccc2)CC1)S(=O)(=O)c1ccc2c(c1)c(=O)n(C)c(=O)n2C
 : -7.4%, >57
- O=C1c2ccccc2C(O)N1Cc1ccccc1 (stereo not given)
 : 10.5%, >57
- Cc1ccccc1NCN1C(=O)C2C3C=CC(C3)C2C1=O (stereo not given)
 : 11.0%, /
- CCOc1ccc(-c2cc(CCCC(=O)NCCCOC)no2)cc1
 : -17.6%, >57
- C=CCN(C(=O)Cn1nnc2ccccc21)C(C(=O)NCCOC)c1ccc(OC)cc1OC (stereo not given)
 : 0.0%, >57
- COCCCN1CN(S(=O)(=O)c2ccc(Cl)cc2)c2nc3ccccc3nc21
 : ?, >57
- CCCCn1c(SCC(=O)O)nc2ccccc21
 : -13.4%, >57
- CCC(C)N1C(=O)NC(=O)C2(Cc3c(ccc4ccccc34)N(C)C2)C1=O (stereo not given)
 : 1.8%, >57
- CC1CC(C)CN(CCCNC(=O)c2ccc(CS(=O)(=O)Cc3ccccc3F)o2)C1 (stereo not given)
 : -16.9%, >57
- CCOC(=O)C1CCN(C(=O)COc2ccc(S(=O)(=O)NC(C)C)cc2Cl)CC1
 : 8.0%, >57
- O=C(O)c1c(-c2nccc3ccccc23)[nH]c(-c2ccccc2)c1S(=O)(=O)O
 : -4.0%[8 µM], >57
- CCCc1nnc(NC(=O)CN2C(=O)C3C4C=CC(C4)C3C2=O)s1 (stereo not given)
 : 12.3%, >57
- CCOC(=O)c1ccc(NC(=O)CCc2c(C)nc3ncnn3c2C)cc1
 : -4.6%, >57
- CNC(=O)c1cc2c(s1)CCCCCC2
 : /, >57
- O=C(CN(CC1CCCO1)S(=O)(=O)c1ccc(S(=O)(=O)NC2CC2)cc1)Nc1ccccc1 (stereo not given)
 : -8.7%, >57
- CC1Cc2cc(/C(O)=C3/C(=O)C(=O)N(CCN4CCOCC4)C3c3cccc(Cl)c3)ccc2O1 (stereo not given)
 : -6.4%, >57
- O=C1CN(c2ccc(Br)cc2)C(=O)N1CC(=O)N1CCCc2ccccc21
 : /, >57
- Cc1ccc(S(=O)(=O)N[C@H]2COC(=O)[C@H](C)COC(=O)C/C=C\[C@H]2C)cc1
 : -5.2%[0.064 µM], /
- Cc1cc(Oc2ccc(Cl)cc2)nc(-c2ccccc2O)n1
 : -0.5%, >57
- CC(=O)c1cccc(NC(=O)c2c(F)c(F)c(F)c(F)c2F)c1
 : ?, >57
- CC1=C(C(=O)OCc2ccc3c(c2)OCO3)C(c2ccc(F)cc2)NC(=O)N1 (stereo not given)
 : -14.6%, >57
- CCC(c1nnc(SCC(=O)Nc2nnc(-c3ccccc3)o2)n1Cc1ccccc1)N(C)C (stereo not given)
 : 2.5%, >57
- O=C(O)CCCC(=O)N1CC(=O)Nc2ccccc21
 : -2.5%, >57
- O=C(N1CCOCC1)N1CCCN(C(=O)N2CCOCC2)CC1
 : 16.0%, >57
- CCS(=O)(=O)N1CCN(c2ccccc2F)CC1
 : ?, >57
- CS(=O)(=O)N(CCc1ccccc1)CC(=O)N1CCCCC1
 : -0.8%, >57
- O=C(NCc1ccc(N2CCCC2=O)cc1)Nc1cccc(Cl)c1
 : -9.6%, >57
- CCCCC(=O)Nc1nc2ccc3nc(C)sc3c2s1
 : -7.9%, >57
- O=C(NCCC1=CCCCC1)C1CCN(S(=O)(=O)c2cccc3nonc23)CC1
 : 0.3%, >57
- Fc1ccc(CSc2nnc(-c3cnccn3)n2Cc2ccco2)cc1
 : ?, >57
- Cc1ccc(C(=O)NCc2ccc3c(c2)OCO3)cc1S(=O)(=O)N1CCCCC1
 : -9.3%, >57

Random excerpt: six compounds from above, in no set order.
Order of results: Anthrax LT inh, SmPrx2 inh
- O=C(NCc1ccc(N2CCCC2=O)cc1)Nc1cccc(Cl)c1
 : -9.6%, >57
- O=C(O)CCCC(=O)N1CC(=O)Nc2ccccc21
 : -2.5%, >57
- CCS(=O)(=O)N1CCN(c2ccccc2F)CC1
 : ?, >57
- CCCCC(=O)Nc1nc2ccc3nc(C)sc3c2s1
 : -7.9%, >57
- CS(=O)(=O)N(CCc1ccccc1)CC(=O)N1CCCCC1
 : -0.8%, >57
- Cc1ccc(C(=O)NCc2ccc3c(c2)OCO3)cc1S(=O)(=O)N1CCCCC1
 : -9.3%, >57

Following part:
Order of results: Anthrax LT inh, SmPrx2 inh
- COCCOC(=O)c1c(NC(=O)CN2CCOCC2)sc(C(N)=O)c1C
 : 3.1%, >57
- O=C(CC(C(=O)O)C1CCCO1)Nc1cccc(C(F)(F)F)c1 (stereo not given)
 : -6.8%, >57
- COc1ccc(S(=O)(=O)NC2CCCCC2)cc1C
 : 2.6%, >57
- COC(=O)c1ccc(Oc2ccc3nnc(C)n3n2)cc1
 : 16.8%, /
- CCn1cnc2cc(NCc3cccc(OC)c3O)ccc21
 : 26.2%, >57
- Cc1ccc(CN(Cc2cc3cccc(C)c3[nH]c2=O)C(=O)N(C)C)cc1
 : -7.2%, >57
- Cc1noc(NS(=O)(=O)c2ccc(NC(=O)CSc3nc4ccccc4[nH]3)cc2)c1C
 : -0.7%, ?
- Cc1noc(C)c1S(=O)(=O)N1CCN(C(c2ccccc2)c2ccc(Cl)cc2)CC1 (stereo not given)
 : ?, >57
- O=C(COC(=O)CSCC(=O)N1CCCCC1)NCc1ccc(F)cc1
 : 6.8%, >57
- Cn1ccnc1-c1nc2ccccc2[nH]c1=O
 : 20.1%, >57
- Cc1ccc(-c2nn(CC(C)(C)C)c3ncnc(N)c23)cc1
 : ?, >57
- CCCCCNC(=O)c1ccc2c(=O)n(CC3CCCO3)c(=O)[nH]c2c1 (stereo not given)
 : 10.2%, >57
- CCN(CC)CCOc1ccc(/C(=C(\Cl)c2ccccc2)c2ccccc2)cc1
 : 8.7%[3.58 µM], >57
- COc1ccc(N2CCN(C3CC(=O)N(c4ccc5c(c4)OCCO5)C3=O)CC2)cc1 (stereo not given)
 : ?, >57

Screening data (PubChem BioAssay)
